NOMO-1 viab = STK33 inhibitor candidate reducing NOMO-1 cell viability; NOMO-1 AML viability, CellTiter-Glo luminescence, 72 h; inhibition, % (no concentration beside the values); 37,000 compounds, 7.5% hits; AID 2330;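 active means most replicates above 80%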;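 further: wells of about 30 µL received 25 nL stock; 0% = median of vehicle wells and 100% = reference inhibitor level; the first replicate is given; inactives centre near 10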
Numbers without * were called inactive. Not all compounds are listed. The share of hits here may be higher or lower than overall.

nr	Compound	NOMO-1 viab
1	Cc1cc(C(=O)Nc2cccc3c2O[C@H](CN(C)S(=O)(=O)c2ccc(F)cc2)[C@@H](C)CN([C@@H](C)CO)C3=O)n(C)n1	24
2	C[C@H](CO)N1C[C@H](C)[C@H](CN(C)Cc2ccc3c(c2)OCO3)Oc2ccc(NS(=O)(=O)c3cccs3)cc2C1=O	14
3	CCn1c(SCC(=O)Nc2cc(Cl)c(Cl)cc2Cl)nnc1-c1ccccc1Cl	-5
4	Cc1cc(C)cc(-c2nc3cc(NC(=O)COc4ccccc4[N+](=O)[O-])ccc3o2)c1	34
5	C[C@H]1CN([C@@H](C)CO)C(=O)c2cc(NC(=O)Nc3cccc4ccccc34)ccc2O[C@@H]1CN(C)C(=O)Nc1ccc2c(c1)OCO2	0
6	O=C(Cn1c(=O)oc2ccccc21)Nc1ccc(S(=O)(=O)N2CCOCC2)cc1	-2
7	C[C@H](CO)N1C[C@H](C)[C@@H](CN(C)C(=O)Nc2ccc(C(F)(F)F)cc2)Oc2c(NC(=O)C3CC3)cccc2C1=O	-3
8	COC(=O)c1ccc(C(=O)OC)c(NC(=O)COc2ccccc2OC)c1	19
9	CC(C)NC(=O)N(C)C[C@H]1OCCCC[C@@H](C)Oc2ccc(NS(=O)(=O)c3cccs3)cc2C(=O)N([C@H](C)CO)C[C@@H]1C	-11
10	C[C@H]1CN([C@@H](C)CO)C(=O)Cc2cc(NC(=O)C3CCCCC3)ccc2O[C@H]1CN(C)S(=O)(=O)c1cccs1	-4
11	COC(=O)COc1cccc(NC(=O)c2ccc(-c3ccccc3)cc2)c1	113*
12	CCN(CC)C(=O)c1ccc(Nc2nnc(-c3ccc(C)c(S(N)(=O)=O)c3)c3ccccc23)cc1	-5
13	CNC[C@H]1Oc2c(NS(=O)(=O)c3ccc(OC)cc3)cccc2C(=O)N([C@@H](C)CO)C[C@H]1C	25
14	COc1ccc(NC(=O)CSc2ncnc3sc(-c4ccccc4)cc23)c([N+](=O)[O-])c1	1
15	O=C(CSc1nc2ccccc2nc1N1CCCC1)Nc1ccccc1	43
16	C[C@]1(O)CC[C@@H]2C(C(=O)O)=CO[C@@H](O[C@@H]3O[C@H](COC(=O)/C=C/c4ccc(O)c(O)c4)[C@@H](O)[C@H](O)[C@H]3O)[C@@H]21	-23
17	C[C@@H]1CCCCO[C@@H](CN(C)C(=O)C2CCCCC2)[C@@H](C)CN([C@H](C)CO)C(=O)c2cc(NC(=O)Nc3ccccc3)ccc2O1	14
18	C[C@H](CO)N1C[C@H](C)[C@H](CN(C)Cc2ccc(Oc3ccccc3)cc2)Oc2ccc(NC(=O)Cn3cnnn3)cc2CC1=O	44
19	Cc1ccc(Nc2nnc(-c3ccc(C)c(S(=O)(=O)NCC4CCCO4)c3)c3ccccc23)cc1 (stereo unspecified)	119*
20	Cc1cc(C(=O)Nc2cccc3c2O[C@H](CN(C)Cc2ccc(C(=O)O)cc2)[C@@H](C)CN([C@@H](C)CO)C3=O)n(C)n1	-15
21	O=C(Nc1cccnc1)c1cc2c(s1)-c1ccccc1CC2	108*
22	Cc1cc(C(=O)Nc2cccc3c2O[C@H](CN(C)Cc2ccc(C(=O)Nc4ccccc4N)cc2)[C@H](C)CN([C@@H](C)CO)C3=O)n(C)n1	128*
23	C[C@@H]1CN([C@H](C)CO)C(=O)c2cccc(NC(=O)NC3CCCCC3)c2O[C@H]1CN(C)S(=O)(=O)c1ccc(Cl)cc1	7
24	COc1ccc(CN(C)C[C@H]2Oc3ccc(NS(=O)(=O)c4ccc(OC)cc4)cc3C(=O)N([C@H](C)CO)C[C@H]2C)cc1	12
25	Cc1ccc(S(=O)(=O)N(C)C[C@H]2Oc3ccc(NC(=O)c4ccncc4)cc3C(=O)N([C@@H](C)CO)C[C@H]2C)cc1	8

Next section; it opens with the 5 that closed the last part.
nr	Compound	NOMO-1 viab
21	O=C(Nc1cccnc1)c1cc2c(s1)-c1ccccc1CC2	108*
22	Cc1cc(C(=O)Nc2cccc3c2O[C@H](CN(C)Cc2ccc(C(=O)Nc4ccccc4N)cc2)[C@H](C)CN([C@@H](C)CO)C3=O)n(C)n1	128*
23	C[C@@H]1CN([C@H](C)CO)C(=O)c2cccc(NC(=O)NC3CCCCC3)c2O[C@H]1CN(C)S(=O)(=O)c1ccc(Cl)cc1	7
24	COc1ccc(CN(C)C[C@H]2Oc3ccc(NS(=O)(=O)c4ccc(OC)cc4)cc3C(=O)N([C@H](C)CO)C[C@H]2C)cc1	12
25	Cc1ccc(S(=O)(=O)N(C)C[C@H]2Oc3ccc(NC(=O)c4ccncc4)cc3C(=O)N([C@@H](C)CO)C[C@H]2C)cc1	8
26	CCCCCCCCCCCCC/C=C/[C@@H](O)[C@H](CO)NC(C)=O	23
27	C[C@@]12C[C@]3(O)O[C@H](O1)C1(COC(=O)c4ccccc4)[C@H]3C[C@@]12O[C@@H]1O[C@H](COC(=O)c2ccccc2)[C@@H](O)[C@H](O)[C@H]1O	-7
28	Cc1[nH]c2ccccc2c1C(=O)CSc1ccc2ccccc2n1	6
29	C[C@@H]1CCCCO[C@@H](CN(C)C(=O)c2ccccc2)[C@@H](C)CN([C@H](C)CO)C(=O)c2cc(NC(=O)Nc3ccc(C(F)(F)F)cc3)ccc2O1	40
30	C[C@H](CO)N1C[C@H](C)[C@H](CN(C)Cc2ccc(Oc3ccccc3)cc2)Oc2c(NC(=O)C3CC3)cccc2C1=O	26
31	Cc1noc(C)c1NC(=O)Nc1cccc2c1O[C@@H](CN(C)S(=O)(=O)c1ccc(Cl)cc1)[C@H](C)CN([C@H](C)CO)C2=O	-27
32	COc1ccccc1-c1nnc(SCC(=O)Nc2ccc(Cl)cc2Cl)n1-c1ccccc1	11
33	Cc1ccc(S(=O)(=O)Nc2cccc3c2O[C@H](CN(C)Cc2ccc(C(=O)Nc4ccccc4N)cc2)[C@H](C)CN([C@H](C)CO)C3=O)cc1	129*
34	CC(=O)NC1C(=O)N(C)N=C1c1ccccc1 (stereo unspecified)	11
35	COc1ccc(S(=O)(=O)Nc2cccc3c2O[C@@H](CN(C)Cc2ccc(C(F)(F)F)cc2)[C@H](C)CN([C@H](C)CO)C3=O)cc1	22
36	C[C@@H]1CCCCO[C@H](CN(C)C)[C@@H](C)CN([C@H](C)CO)C(=O)c2cc(NC(=O)Nc3ccc4c(c3)OCO4)ccc2O1	17
37	C[C@H](CO)N1C[C@H](C)[C@H](CN(C)Cc2ccc3c(c2)OCO3)Oc2c(NC(=O)c3cnccn3)cccc2C1=O	3
38	C[C@H](CO)N1C[C@H](C)[C@H](CN(C)Cc2ccccc2)Oc2c(NC(=O)C3CC3)cccc2C1=O	13
39	COc1cc(/C=C/CO[C@@H]2O[C@H](CO)[C@@H](O)[C@H](O)[C@H]2O)ccc1O	2
40	CCOC(=O)C1CCN(C(=O)Nc2ccc3snnc3c2)CC1	106*
41	COC(=O)CSc1nc(-c2cccc(C)c2)nc2c1CCCC2	2
42	CC(Sc1nc(=O)cc(N)n1-c1ccccc1)C(=O)Nc1ccc(Cl)cc1 (stereo unspecified)	-9
43	CCOc1ccccc1NC(=O)CN1C(=O)c2cccc3cccc1c23	33
44	CC(C)NC(=O)N(C)C[C@H]1Oc2ccc(NC(=O)NC3CCCCC3)cc2CC(=O)N([C@H](C)CO)C[C@H]1C	-11
45	C[C@@H]1CCCCO[C@H](CN(C)C(=O)Nc2ccc(F)cc2)[C@@H](C)CN([C@H](C)CO)C(=O)c2cc(NC(=O)Nc3ccccc3)ccc2O1	38
46	COc1cccc(N(CC(=O)Nc2cccc(Cl)c2)S(C)(=O)=O)c1	18
47	NC(=O)CSc1nnc(-c2ccccc2F)n1-c1ccccc1	27
48	CCOC(=O)c1c(NC(=O)CSc2nc(C)cc(C(F)(F)F)c2C#N)sc2c1CCCC2	-2
49	CC(=O)c1ccc(NC(=O)Cn2cnc3c(sc4nc5c(cc43)COC(C)(C)C5)c2=O)cc1	21
50	CN(C)c1ccc(/C=C(\C#N)C(N)=C(C#N)C#N)cc1	37
51	C[C@H](CO)N1C[C@H](C)[C@@H](CN(C)C(=O)Nc2ccc(F)cc2)Oc2c(NC(=O)NC3CCCCC3)cccc2C1=O	18
52	CN(C)C(=S)SCC(=O)c1ccc(Cl)cc1	16
53	C[C@@H]1CN([C@H](C)CO)C(=O)c2cccc(NC(=O)Nc3ccc(F)cc3)c2O[C@H]1CN(C)C(=O)Nc1ccc2c(c1)OCO2	6
54	CNc1ccccc1C(=O)N1CCc2c([nH]c3ccccc23)C1=O	95*
55	COc1ccc(NC(=O)N(C)C[C@H]2Oc3ccc(NS(=O)(=O)c4c(C)noc4C)cc3CC(=O)N([C@H](C)CO)C[C@H]2C)cc1	11
56	Cc1ccc(S(=O)(=O)N(C)C[C@@H]2Oc3ccc(NC(=O)Cc4cn(C)c5ccccc45)cc3CC(=O)N([C@H](C)CO)C[C@H]2C)cc1	20
57	COc1ccc(NC(=O)N(C)C[C@H]2Oc3ccc(NS(=O)(=O)c4ccc(C)cc4)cc3C(=O)N([C@@H](C)CO)C[C@@H]2C)cc1	2
58	CC(=O)Nc1ccccc1NC(=O)COc1ccc([N+](=O)[O-])cc1	-5
59	O=C(CN1CCN(C2CCCC2)CC1)Nc1ccc([N+](=O)[O-])cc1C(=O)Nc1ccccc1F	24
60	COc1ccc(CN(C)C[C@@H]2Oc3ccc(NC(=O)Nc4ccc(OC)cc4)cc3C(=O)N([C@@H](C)CO)C[C@@H]2C)cc1	9
61	NC(=O)CN1C(=O)C(O)(CC(=O)c2cccnc2)c2ccccc21 (stereo unspecified)	-7
62	C[C@H]1CN([C@@H](C)CO)C(=O)Cc2cc(NC(=O)Cc3ccccc3)ccc2O[C@H]1CN(C)Cc1ccc(C(F)(F)F)cc1	46
63	CN(CCC#N)C(=S)Nc1ccc(F)cc1	3
64	O=C(NCc1cccnc1)c1cccnc1-c1nc2ccccc2s1	23
65	CCn1c2ccccc2n2c(SCCOc3ccc(C)cc3)nnc12	30
66	C[C@H]1CN([C@@H](C)CO)C(=O)c2cccc(NC(=O)C3CCCCC3)c2O[C@@H]1CN(C)Cc1ccc2c(c1)OCO2	21
67	COc1ccc(S(=O)(=O)Nc2cccc3c2O[C@H](CN(C)S(=O)(=O)c2ccc(C)cc2)[C@@H](C)CN([C@H](C)CO)C3=O)cc1	-10
68	CN(C)c1oc(-c2ccc(Cl)cc2)nc1C#N	27
69	COC(=O)c1cc(OC)c(OC)cc1NC(=O)Cc1ccccc1[N+](=O)[O-]	19
70	C[C@H](CO)N1C[C@H](C)[C@H](CN(C)C(=O)Nc2cccc3ccccc23)Oc2ccc(NC(=O)Nc3ccccc3)cc2C1=O	-1
71	C[C@H](CO)N1C[C@H](C)[C@H](CN(C)Cc2ccc(Cl)c(Cl)c2)Oc2c(NC(=O)Nc3ccc(F)cc3)cccc2C1=O	99*
72	COc1ccc(NC(=O)COc2ccccc2Cl)cc1NC(=O)c1ccco1	-14
73	COc1ccc([C@H]2OC[C@H]3[C@@H]2CO[C@@H]3c2ccc(O[C@@H]3O[C@H](CO)C(O)[C@H](O)[C@H]3O)c(OC)c2)cc1OC (stereo partly specified)	-12
74	O=C(CCN1C(=O)c2ccccc2S1(=O)=O)Nc1ccc2c(c1)OCCO2	-4
75	C[C@@H]1CN([C@H](C)CO)C(=O)c2cccc(NC(=O)NC3CCCCC3)c2O[C@@H]1CN(C)Cc1ccc(Oc2ccccc2)cc1	60

Another view of three compounds above.
75: C[C@@H]1CN([C@H](C)CO)C(=O)c2cccc(NC(=O)NC3CCCCC3)c2O[C@@H]1CN(C)Cc1ccc(Oc2ccccc2)cc1
  NOMO-1 viab: 60

59: O=C(CN1CCN(C2CCCC2)CC1)Nc1ccc([N+](=O)[O-])cc1C(=O)Nc1ccccc1F
  NOMO-1 viab: 24

62: C[C@H]1CN([C@@H](C)CO)C(=O)Cc2cc(NC(=O)Cc3ccccc3)ccc2O[C@H]1CN(C)Cc1ccc(C(F)(F)F)cc1
  NOMO-1 viab: 46

Further entries:
nr	Compound	NOMO-1 viab
76	C[C@H]1CN([C@@H](C)CO)C(=O)Cc2cc(NC(=O)Nc3ccc(F)cc3)ccc2O[C@H]1CN(C)C(=O)Nc1cccc2ccccc12	7
77	C[C@H](CO)N1C[C@H](C)[C@H](CN(C)CC2CCCCC2)Oc2ccc(NC(=O)c3ccncc3)cc2CC1=O	33
78	O=C(Nc1ccc(S(=O)(=O)Nc2ccccn2)cc1)Nc1ccc(Cl)c(Cl)c1	21
79	C[C@@H]1CN([C@H](C)CO)C(=O)Cc2cc(NS(=O)(=O)c3ccccc3)ccc2O[C@@H]1CN(C)C	21
80	C[C@@H]1CN([C@H](C)CO)C(=O)c2cc(NS(=O)(=O)c3cccs3)ccc2O[C@@H]1CN(C)S(=O)(=O)c1cccs1	-12
81	C[C@H](CO)N1C[C@H](C)[C@H](CN(C)C(=O)Nc2ccc(C(F)(F)F)cc2)Oc2ccc(NC(=O)Cc3ccccc3)cc2CC1=O	22
82	Cc1cc(C)c(NC(=O)CSc2nnc(-c3cccnc3)s2)c([N+](=O)[O-])c1	32
83	CCCCC/C=C/C=C/C(O)CCCCCCCC(=O)O (stereo unspecified)	28
84	CNC[C@H]1Oc2ccc(NC(=O)NC(C)C)cc2CC(=O)N([C@H](C)CO)C[C@H]1C	-14
85	CCSC1=C(C#N)C(=O)NC(C(C)C)S1 (stereo unspecified)	36
86	C[C@H](CO)N1C[C@H](C)[C@H](CN(C)CC2CCCCC2)Oc2ccc(NS(=O)(=O)c3cccs3)cc2CC1=O	28
87	COc1ccc(NC(=O)N(C)C[C@H]2OCCCC[C@@H](C)Oc3ccc(NC(=O)NC4CCCCC4)cc3C(=O)N([C@H](C)CO)C[C@@H]2C)cc1	38
88	COc1ccc(S(=O)(=O)N(C)CC(=O)NC2CC2)cc1	27
89	Cc1nnc(SCC(=O)Nc2ccc(F)c(F)c2F)s1	16
90	COc1ccc(S(=O)(=O)N(C)C[C@@H]2Oc3c(NC(=O)Nc4cccc5ccccc45)cccc3C(=O)N([C@@H](C)CO)C[C@H]2C)cc1	18
91	C[C@H]1CN([C@@H](C)CO)C(=O)c2cc(NC(=O)Cc3ccccc3)ccc2O[C@@H]1CN(C)Cc1ccc2c(c1)OCO2	10
92	C[C@@H]1CCCCO[C@H](CN(C)S(=O)(=O)c2ccccc2)[C@@H](C)CN([C@H](C)CO)C(=O)c2cc(N(C)C)ccc2O1	31

Bioassay records: PubChem, Broad Institute
